Screening data (PubChem)
Cruzain Triton – cruzain (T. cruzi) inhibition with detergent; purified cruzain, Z-FR-AMC fluorescence, 0.01% Triton; Potency, µM, without a hit: max response, negative = inhibition, usual class: inhibitors; hit rate 0.43% among 200,000; active = well fitted curve in the direction sought with a large enough effect; inconclusive = small, poorly fitted or top-dose-only effect, or another doubt; inactive = no such curve, though single readings can be large; an effect the other way counts as inactive or inconclusive;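 note: plate controls were neutral wells for no effect and buffer without enzyme for full effect; nearly all actives have a fitted effect of over 40% in size; top concentration of the series not given in the record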
Target sequence (P25779 123-467 limits assumed): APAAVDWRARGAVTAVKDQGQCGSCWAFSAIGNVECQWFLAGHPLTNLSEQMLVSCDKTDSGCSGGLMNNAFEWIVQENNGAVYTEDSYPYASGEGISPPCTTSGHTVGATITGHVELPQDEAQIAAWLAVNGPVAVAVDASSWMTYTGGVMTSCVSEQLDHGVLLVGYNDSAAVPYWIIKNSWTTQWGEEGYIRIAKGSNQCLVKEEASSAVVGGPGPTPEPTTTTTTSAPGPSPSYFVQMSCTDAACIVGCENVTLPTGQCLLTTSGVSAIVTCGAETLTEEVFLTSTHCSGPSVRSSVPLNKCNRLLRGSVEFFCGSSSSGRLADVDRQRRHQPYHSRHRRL
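15 min RT preincubation of 1.5 nM cruzain with compound, then 2 uM Z-FR-AMC added; kinetic AMC fluorescence, 60 s delta. Triton X-100 0.01%, pH 5.5.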
Lassa entry inh – inhibitors of Lassa virus binding or cell entry. Lassa virus pseudotype entry inhibition, cell reporter; control for the full effect not named in the record. Potency, µM (highest dose often 37.9 µM), without a hit: top-dose activity change, negative = inhibition, usual class: inhibitors. hit rate 1.2% among 300,000. AID 540256; active means well fitted inhibition curve with a large enough effect; inconclusive means small, poorly fitted or top-dose-only effect, or effect the other way; inactive means flat fitted curve, though single readings scatter; tested in HEK293 cells; note: % is set by controls: 0 for no effect and ±100 for the full control effect; nearly all actives have a fitted effect of over 50% in size; luciferase read-out
NS1 function inh – influenza NS1 inhibition; S. cerevisiae slowed by influenza A NS1, growth recovery by OD600; Potency, µM (top dose mostly 46.1 µM), without a hit: top-dose activity, positive = more growth; hit rate 0.4% among 270,000; AID 2326; note: actives are rising curves; nearly all actives have a fitted effect of over 50% in size
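Recovery from NS1-induced slow growth read by OD600 in budding yeast switched to galactose assay medium (pH 6.0, -URA) at 1:100 dilution. Compound 23 nl per well; the matching strain lacking NS1 serves as control.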
RE007 growth inh – less growth of the S. pombe RE007 Vpr strain; S. pombe RE007 Vpr strain, BacTiter-Glo ATP luminescence, 24 h; control for the full effect not named in the record; Potency, µM (highest dose often 92.2 µM), for the others: top-dose activity change, negative = less growth; hit rate 0.21% among 360,000; active = well fitted falling curve with a large enough effect; inconclusive = small, poorly fitted or top-dose-only effect; inactive = no such curve, though single readings can be large or run the other way;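 note: % is set by controls: 0 for no effect and ±100 for the full control effect; nearly all actives have a fitted effect of over 50% in size; the assay follows cell death caused by Vpr and the record does not say whether a fall means rescue or toxicity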
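Fission yeast strain RE007, carrying one chromosomally integrated HIV-1 vpr copy, was seeded at OD 0.01 in PMG+AL medium with 23 nL pinned compound. After 24 h at 30 °C and 99% humidity, viability was read by BacTiter-Glo luminescence.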
Marburg entry inh – blocks Marburg virus binding to or entry into cells | hit rate 1.8% among 300,000 | Marburg virus pseudotyped entry inhibition, cell reporter; control for the full effect not named in the record; about a third of the inactives were read at about 46 µM | Potency, µM (titrated, usually from 37.8 µM), for inactives: top-dose activity change, negative = inhibition, most hits filed as inhibitors; active = well fitted inhibition curve with a large enough effect; inconclusive = small, poorly fitted or top-dose-only effect, or effect the other way; inactive = flat fitted curve, though single readings scatter; tested in HEK293 cells; about a fifth of its hits are not listed in these tables; note: % is set by controls: 0 for no effect and ±100 for the full control effect; luciferase read-out
2A StopGo – FMDV 2A StopGo reporter, luciferase signal. human cells with a luciferase reporter of 2A StopGo recoding; control for the full effect not named in the record. Potency, µM (top dose mostly 57.9 µM), for the others: top-dose signal change, negative = less light. hit rate 1.2% among 410,000; active = well fitted falling curve with a large enough effect; inconclusive = small, poorly fitted or top-dose-only effect; inactive = no such curve, though single readings can be large or run the other way; tested in HEK293T cells; note: % is set by controls: 0 for no effect and ±100 for the full control effect; nearly all actives have a fitted effect of over 45% in size; luciferase light after 4 h
Cruzain noTriton – cruzain (T. cruzi) inhibition without detergent. P25779. purified cruzain, Z-FR-AMC fluorescence, no detergent. Potency, µM, for the others: max response, negative = inhibition, actives largely listed as inhibitors. hit rate 2.3% among 200,000; active = well fitted curve in the direction sought with a large enough effect; inconclusive = small, poorly fitted or top-dose-only effect, or another doubt; inactive = no such curve, though single readings can be large; an effect the other way counts as inactive or inconclusive;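 note: plate controls were enzyme without inhibitor for no effect and buffer without enzyme for full effect; nearly all actives have a fitted effect of over 40% in size; top concentration of the series not given in the record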
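Detergent-free condition (0.00005% Triton X-100) in acetate buffer pH 5.5 with DTT. 1.5 nM enzyme and compound were pre-mixed 15 min, then 2 uM Z-FR-AMC substrate added; reaction progress from fluorescence change between first and third reads (60 s).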
SARS PLP yeast – blocks SARS-CoV papain-like protease in a yeast assay. S. cerevisiae expressing SARS-CoV PLpro, growth rescue; control for the full effect not named in the record. Potency, µM (doses to about 32.9 µM), for the others: at the top dose activity, positive = growth rescue. AID 485353. hit rate 0.19% among 330,000; note: 0% is about no effect; nearly all actives have a fitted effect of over 55% in size; growth read by luminescence after 48 h
* hit, by the source's call; u = inconclusive; x = not tested or not shown; & = joins results of further samples; [ ] = another dose, or the depositor's remark. Unless noted, calls come from the whole dose curve; as a rule, active means well fitted rising curve with a large enough effect; inconclusive means small, poorly fitted or top-dose-only effect; inactive means no such curve, though single readings can be large or run the other way. Potency is the fitted concentration of half-maximal effect.

SMILES	Cruzain Triton	Lassa entry inh	NS1 function inh	RE007 growth inh	Marburg entry inh	2A StopGo	Cruzain noTriton	SARS PLP yeast
Cn1nccc1C(=O)NC1CC(C)(C)Cc2c1cnn2-c1ccc(F)cc1 (configuration not stated)	x	4%	-12%	5%	-12%[46.1 µM]	-23%	x	u
O=C(Nc1ccon1)c1cccc(S(=O)(=O)N2CCCC2)c1	0.4%	-28%[14.3 µM]	-6%	-6%	-4%	-3%	-6%	-1%
O=C1/C(=C/c2cccs2)SC(=S)N1NS(=O)(=O)c1ccccc1	x	x	-52%	u	x	8%	x	-2%
O=C(O)CC(NC(=O)c1ccccc1NC(=O)c1ccccc1)C(=O)O (configuration not stated)	-12%	17%	0%	0%	14%	0%	-8%	u
O=C(c1cccs1)N1CCCC(c2ccccc2)C1 (configuration not stated)	3.1%	13%	-11%	-3%	-3%	0%	5%	4%
CC(=O)Nc1ccc(C(=O)Cn2c3[n+](c4c(F)c(F)ccc42)CCCCC3)cc1	x	u	x	-18%	u	-1%	x	-2%
C=CCSc1nnc(-c2cc3c(C(F)(F)F)nn(C)c3s2)n1C	7.8%	-2%	4%	-6%	-27%	-10%	8%	-9%
CC(=O)Nc1cc(C(=O)N(C)Cc2ccco2)ccc1Sc1ccc(C)cc1	-2.7%	u	-2%	6%	9%	0%	0%	-27%
CCOC(=O)c1noc2nc(C)n(CC(=O)Nc3ccc(OC)c(Cl)c3)c(=O)c12	-0.5%	7%[46.1 µM]	x	x	x	0%	-4%	x
CC(=O)Nc1ccc(S(=O)(=O)NC2CC(=O)N(c3cccc(F)c3)C2)cc1 (configuration not stated)	x	11%	x	-6%	-6%	-21%	x	-7%
O=C(COc1ncnc2ccccc12)NCC1CCCO1 (configuration not stated)	x	9%	3%	-2%	23%[46.1 µM]	-2%	x	0%
CCOc1ccccc1NC(=O)c1ccc2c(c1)CCN2S(C)(=O)=O	0.4%	-2%[46.1 µM]	x	x	-10%[46.1 µM]	13%	0%	x
Cc1ccc(P(=O)(CO)c2ccc(C)cc2)cc1	7.6%	5%	3%	-10%	26%	16%	7%	5%
CCC(C(=O)Nc1nccs1)(C(F)(F)F)C(F)(F)F	0.5%	22%	5%	13%	-23%&-23%	-24%	-3%	3%
COC(=O)c1cc(OC)nc2c1c(=O)n(C)c(=O)n2C	0.2%	-6%	7%	0%	-5%	-24%	-17%	18%
CC(=O)Nc1ccc(NC(=O)C2CCCN2S(=O)(=O)c2ccc3c(c2)CCCC(=O)N3)cc1 (configuration not stated)	-0.1%	15%[46.1 µM]	x	x	x	-23%	-3%	x
Cc1nc(C)n(CC(O)COc2ccc3cc(Br)ccc3c2)n1 (configuration not stated)	-5.0%	-3%	-46%	-8%	u	u	u	x
O=C(Nc1ccc2ccccc2n1)c1ccc(Cl)cc1	x	u	-1%	-4%	u	-16%	x	0%
COc1cc(C(=O)N2CCCc3ccccc32)c([N+](=O)[O-])cc1OC	x	x	10%	4%	x	-16%	x	-8%
COc1ccc(C(=O)OCC(=O)Nc2cc(C)on2)cc1S(=O)(=O)N1CCOCC1	2.4%	-13%	2%	0%	16%[46.1 µM]	13%	5%	-16%
CCCN(CC(=O)Nc1ccccc1C)C(=O)c1ccc(S(=O)(=O)N2CCC(C)CC2)cc1	x	-6%	x	-24%	-28%	-8%	x	-1%
CC(C)C[C@H]1CN=C(Nc2ccccc2)N1CC1CCCCC1	x	x	-25%	14%	x	-15%	x	0%
COCCCN1C(=O)C(=O)/C(=C(/O)c2ccc(OC(C)C)cc2)C1c1ccncc1 (configuration not stated)	-2.8%	-9%	u	-2%	1%	x	-12%	2%
Cc1ccc(NC(=O)C2CCN(c3nc(-c4ccc(C(C)C)cc4)no3)CC2)c(Cl)c1	1.1%	u	x	x	x	u	-18%	x
Cc1cccc(C)c1Nc1nc2ccccc2nc1NS(=O)(=O)c1ccccc1	-9.6%	22%[46.1 µM]	x	x	0%[46.1 µM]	-11%	-3%	x
Cc1[nH]c(C)c(S(=O)(=O)N2CCN(c3ccccc3)CC2)c1C(=O)N1CCCC1	x	8%[46.1 µM]	15%	8%	14%[46.1 µM]	-2%	x	x
CCCc1n[nH]c(=O)c2c1nnn2Cc1ccccc1	x	x	0%	10%	x	-1%	x	0%
O=C(NCCc1ccc(Cl)cc1)c1ccc2c(c1)N(Cc1c(F)cccc1Cl)C(=O)CS2	-4.7%	-2%[46.1 µM]	x	x	-12%[46.1 µM]	u	u	x
O=C(O)c1ccc(O)cc1O	3.3%&6.6%	x	x	3%	x	-1%	12%&-5%	-21%
CC(=O)Nc1ccc(/C=C2\Sc3ccccc3C2=O)cc1	x	-6%	0%	6%	1%	88%[activator]	x	0%
CCN1CCCC1CN(Cc1cc2ccc(C)cc2[nH]c1=O)C(=S)Nc1ccccc1OC (configuration not stated)	1.5%	-18%	4%	u	u	-15%	-7%	-7%
CCOC(=O)c1[nH]c(C)c(C(=O)O)c1C	4.7%	x	-4%	x	9%	x	1%	-6%
CC(=O)NC12CC3CC(C1)CC(C(=O)N1CCN(S(=O)(=O)c4ccc(Cl)s4)CC1)(C3)C2	x	12%	-2%	3%	10%	-14%	x	2%
CC1CCCCN1C(=S)NCc1ccco1 (configuration not stated)	x	x	x	-6%	1%[46.1 µM]	28%	x	0%
CCCCCCCCNC(=O)/C(C#N)=C/c1ccccc1[N+](=O)[O-]	u	u	-28%	x	u	-31%	25%	-110%
Cc1nc2ccccc2c(=O)n1NC(=O)c1ccccc1	x	4%	27%	6%	12%	-4%	x	1%
CCOC(=O)Cc1csc(SCC(=O)N(CC(C)C)c2c(N)n(Cc3ccccc3)c(=O)[nH]c2=O)n1	x	-15%	x	12%	18%	-11%	x	-4%
O=C(COC(=O)c1cccc(Br)c1)NCc1ccco1	x	-21%[46.1 µM]	x	-12%	8%[46.1 µM]	0%	x	-10%
CCc1cc(=O)oc2cc(C)cc(OC(C)C(=O)NC(Cc3c[nH]c4ccc(O)cc34)C(=O)O)c12 (configuration not stated)	x	x	u	2%	x	-22%	x	2%
COc1ccc(Cn2c(CCC(=O)Nc3cc(C)cc(C)c3)nc3cccnc32)cc1	-0.4%	-13%[46.1 µM]	x	x	u	u	7%	x
CC(=O)c1cccc(NC(=S)NC(=O)c2ccccc2)c1	-7.4%	-19%	6%	25%	u	22%	2%	7%
Cc1ccc(C)c(OCC(=O)NCCNC(=O)COc2cc(C)ccc2C)c1	-4.7%	-1%	8%	6%	-12%	-29%	u	14%
O=C1OCc2cccc([N+](=O)[O-])c21	-3.9%	4%	u	-7%	2%	1%	0%	16%
COC(=O)c1sccc1S(=O)(=O)Nc1ccc(C)cc1	x	x	-7%	-6%	x	3%	x	1%
NC(=O)CSc1oc(-c2ccc(F)cc2)nc1S(=O)(=O)c1ccccc1	3.0%	-6%	-8%	2%	-16%&-16%	-4%	-16%	1%
COc1ccc(N2C(=O)C3C(c4ccc(C(=O)O)cc4)NC(Cc4ccccc4)(C(=O)O)C3C2=O)c([N+](=O)[O-])c1 (configuration not stated)	x	1%	17%	2%	2%[46.1 µM]	-9%	x	2%
OCCOCCNc1ncnc2sc(-c3ccccc3)cc12	-8.3%	-1%	-7%	1%	u	u	54%	2%
CSc1nsc(/C=C/Nc2cccc(Cl)c2)c1C#N	-6.3%	0%	15%	-1%	-23%	17%	20µM*	x
CCOC(=O)N1CCN(S(=O)(=O)c2cc(C)c(C)cc2C)CC1	-4.0%	-23%	-1%	-1%	-3%	-20%	0%	11%
CC(C)(C)CN1C(N)=NC[C@H]1Cc1ccc(O)cc1	x	x	0%	-19%	x	-16%	x	0%
Carrying on.
SMILES	Cruzain Triton	Lassa entry inh	NS1 function inh	RE007 growth inh	Marburg entry inh	2A StopGo	Cruzain noTriton	SARS PLP yeast
COc1ccc(C)cc1Nc1n[n+](-c2ccccc2)c(-c2cc([N+](=O)[O-])cc(OC)c2O)s1	x	x	11%	-16%	x	-7%	x	5%
O=C(COC(=O)Cc1cccc(F)c1)NCCc1ccccc1	x	1%	x	13%	4%	2%	x	7%
O=C(CCn1c(=S)oc2ccccc21)N1CCCCC1	x	5%	x	-8%	4%[46.1 µM]	40%[activator]	x	3%
CNC(=O)c1[nH]cnc1C(=O)N[C@@H](CC(C)C)C(=O)OCc1ccccc1	x	x	-10%	0%	x	u	x	-2%
COC(=O)N1CCN(c2ccc(C(C)=O)cc2)CC1	-3.7%	7%	1%	-11%	3%	19%	-5%	-2%
COc1ccc(N2CCN(C(=O)C3CCN(S(=O)(=O)c4cccs4)CC3)CC2)cc1	0.1%	-9%	x	-23%	-3%&-10%[46.1 µM]	-17%&-30%	-4%	-5%
O=C(Nc1cccc2c1CCCC2)C1CCCN(S(=O)(=O)c2cccc3nonc23)C1 (configuration not stated)	8.5%	-15%	6%	1%	3%	-21%	u	x
COc1cc2c(cc1OC)CN(C(=O)CC1CC3CCC1C3)CC2 (configuration not stated)	-3.0%	-2%	-6%	19%	-8%	15%	15%	5%
Cn1c(N)c(NC(=S)NC2CCCCC2)c(=O)n(C)c1=O	x	19%[46.1 µM]	x	-28%	u	-4%	x	x
Cc1ccc(N2CCN(C(=O)CN3C(=O)c4ccccc4C3=O)CC2)cc1	-3.1%	-15%	5%	16%	u	8%	20%	7%
CC1CN(c2ccccn2)C(C)CN1C(=O)C(O)(c1ccccc1)c1ccccc1 (configuration not stated)	x	-6%[46.1 µM]	x	0%	-14%[46.1 µM]	-11%	x	x
Cc1onc(-c2ccccc2)c1C(=O)Nc1sccc1C#N	x	-20%[46.1 µM]	0%	-8%	u	-7%	x	3%
Cc1cc(C)cc(N(C(=O)CNC(=O)c2ccco2)C(C(=O)NC2CCCC2)c2cccnc2)c1 (configuration not stated)	7.6%	-22%	-8%	-8%	2%[46.1 µM]	3%	16%	7%
